VDR inhibitor – vitamin D3 receptor (human) inhibition | VDR-SRC2-3 peptide fluorescence polarization, 2 h | 0.93% of 400,000 active | Potency, µM, inactives show max response, negative = inhibition, actives largely listed as inhibitors; active means well fitted inhibition curve with a large enough effect; inconclusive means small, poorly fitted or top-dose-only effect, or another doubt; inactive means no such curve, though single readings can be large or run the other way; further: series mostly up to about 120 µM
Target sequence (P11473 whole entry, looked up): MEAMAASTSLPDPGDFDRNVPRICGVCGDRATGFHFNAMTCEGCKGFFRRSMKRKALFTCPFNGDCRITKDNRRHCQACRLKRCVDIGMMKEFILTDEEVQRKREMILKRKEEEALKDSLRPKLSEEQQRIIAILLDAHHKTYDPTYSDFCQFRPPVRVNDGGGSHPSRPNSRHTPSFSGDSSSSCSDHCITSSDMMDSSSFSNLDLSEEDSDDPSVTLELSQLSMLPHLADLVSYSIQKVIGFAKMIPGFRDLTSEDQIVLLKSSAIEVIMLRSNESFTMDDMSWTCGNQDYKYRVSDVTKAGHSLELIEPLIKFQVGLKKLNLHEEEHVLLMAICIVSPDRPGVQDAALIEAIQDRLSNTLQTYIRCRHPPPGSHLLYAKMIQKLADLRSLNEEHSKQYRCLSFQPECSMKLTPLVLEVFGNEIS
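Fluorescence polarization assay of small-molecule disruption of VDR binding to coregulator peptide SRC2-3. Compounds and controls pin-transferred, then read after 2 h incubation at ambient room temperature.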
Active calls of the source: *. On the % scale 0 is the no-effect control and ±100 the full control effect; potency means the concentration at half of the fitted maximal effect.

For CC(=O)N1CCN(C(=S)NC(=O)c2c(-c3ccccc3Cl)noc2C)CC1 the results were VDR inhibitor 23%.
For Cc1ccc(N2C(=O)/C(=C/c3ccco3)SC2=S)cc1 the results were VDR inhibitor -6%.
O=C(c1ccncc1)N1CCC2(CC1)CN(c1ccccc1)C2 was read as VDR inhibitor inconclusive.
Screening CC(Sc1nc(C(F)(F)F)nc2ccccc12)C(=O)NC1CCCC1 (stereo unspecified) returned VDR inhibitor -2%.
Fc1ccccc1-c1nc(NCc2ccco2)c2ccccc2n1 was read as VDR inhibitor 10%.
COC(=O)C1=C(C(=O)OC)[C@@H]2N(C)c3ccccc3[C@@]23C[C@@H](CO)N=C3N1 was read as VDR inhibitor -1%.
For O=C(Nc1cccc(-c2cn3cccnc3n2)c1)c1ccc(Br)o1 the results were VDR inhibitor -7%.
Screening O=C(NCc1ccco1)C1c2ccccc2Oc2ccccc21 returned VDR inhibitor -23%.
COc1ccc(-n2nnnc2C2CCN(S(=O)(=O)c3ccc(C)cc3)CC2)cc1 was read as VDR inhibitor 7%.
`COc1ccc(C)cc1NC(=O)CCN1CC(C)OC(C)C1` (stereo unspecified) gave VDR inhibitor 3%.
`CN1CCN(Cc2cccc(Oc3ccccc3)c2)CC1` gave VDR inhibitor 5%.
For O=C(NCc1ccc2c(c1)OCO2)c1cccnc1Cl the results were VDR inhibitor 5%.
For O=C(Nc1ccc(Cl)cc1F)C1CC1c1ccccc1 (stereo unspecified) the results were VDR inhibitor -5%.
CCCn1c(C)cc(C(=O)CSc2nc3ccccc3c(=O)n2Cc2ccco2)c1C was read as VDR inhibitor -4%.
`COc1ccc(NC(=O)C2COc3ccccc3C2)cc1Cl` (stereo unspecified) gave VDR inhibitor 7%.
For COc1cccc(-c2nn(-c3ccc(C)cc3)cc2C(=O)NCC(c2cccs2)N2CCOCC2)c1 (stereo unspecified) the results were VDR inhibitor 2%.
For CN(C)c1ccc(/C=N/N=C2/NC(=O)/C(=C/c3ccc([N+](=O)[O-])cc3)S2)cc1 the results were VDR inhibitor 8%.
`S=C(NCc1ccccc1)NCc1ccc2c(c1)OCO2` gave VDR inhibitor -14%.
`O=c1[nH]c2ccc(S(=O)(=O)N3CCN(C4CCCCC4)CC3)cc2[nH]c1=O` gave VDR inhibitor 1%.
For COc1ccc(S(=O)(=O)N(C)c2ccc(C(=O)NCC3CCCO3)cc2)cc1OC (stereo unspecified) the results were VDR inhibitor 3%.
Screening COc1ccc(C(=O)N/N=C\c2coc3ccccc3c2=O)cc1 returned VDR inhibitor inconclusive.
Screening COc1cc(C2C(=O)c3ccccc3C2=O)ccc1O returned VDR inhibitor -6%.
`Cc1noc(C)c1CCC(=O)NC1CCCN(Cc2ccc(Cl)cc2)C1` (stereo unspecified) gave VDR inhibitor 7%.
`Cc1c(N/C=C/C(=O)C(F)(F)F)c(=O)n(-c2ccccc2)n1C` gave VDR inhibitor 9%.
Cc1ccc(-c2nnc(N3CCCCC3)c3ccccc23)cc1S(=O)(=O)N(C)C was read as VDR inhibitor -10%.
For O=C(c1ccccc1NS(=O)(=O)c1ccc(Br)s1)N1CCOCC1 the results were VDR inhibitor -11%.
`Cc1c([N+](=O)[O-])cc(C(=O)Oc2ccc(Br)cc2C(=S)N2CCCCC2)cc1[N+](=O)[O-]` gave VDR inhibitor -11%.
`CC(C)[C@H](NC(N)=O)C(=O)Nc1cccc(S(=O)(=O)N2CCOCC2)c1` gave VDR inhibitor -19%.
`CCc1sc(C(=O)Nc2cccc(C(C)=O)c2)cc1C` gave VDR inhibitor 5%.
`COc1cc(CNc2ncn[nH]2)ccc1OCC(=O)NC(C)(C)C` gave VDR inhibitor 12%.
O=C(CSc1nnc(-c2ccccc2)n1-c1ccc(Cl)cc1)N/N=C/c1ccccc1C(=O)O was read as VDR inhibitor -15%.
COc1ccccc1-c1nccc(NCc2cccnc2)n1 was read as VDR inhibitor inconclusive.
CNC(=O)COC(=O)c1ccc(-c2nc3ccccc3s2)s1 was read as VDR inhibitor 1%.
For Cc1ccc(S(=O)(=O)CCC(=O)Oc2ccc3c(C)cc(=O)oc3c2)cc1 the results were VDR inhibitor inconclusive.
CC(=O)N1CCN(c2ccc(NC(=O)c3ccc(Br)o3)cc2Cl)CC1 was read as VDR inhibitor -13%.
COc1ccccc1N1C(=O)Cc2ccccc2C1=O was read as VDR inhibitor 0%.
Screening Cc1cc(NC(=O)CCC(=O)N(CC(=O)NC2CCCC2)c2ccc3c(c2)OCCO3)no1 returned VDR inhibitor 1%.
For CC(C)c1ccc(S(=O)(=O)N(C)C2(C)CCS(=O)(=O)C2)cc1 (stereo unspecified) the results were VDR inhibitor 16%.
`Cc1cccc(N2C(=O)CC(N3CCN(c4cccc(C(F)(F)F)c4)CC3)C2=O)c1` (stereo unspecified) gave VDR inhibitor -4%.
CN(C)C(=O)C(NC(=O)c1ccccc1)=C(Cl)Cl was read as VDR inhibitor 7%.
O=C(CCc1nc2ccccc2c(=O)[nH]1)NCc1ccccn1 was read as VDR inhibitor -8%.
Screening CNS(=O)(=O)c1cccc(C(=O)OCC(=O)N2CCCC2)c1 returned VDR inhibitor -6%.
For CCc1nc2cc(C)nn2c2nc3ccccc3n12 the results were VDR inhibitor 4%.
`Cc1onc(-c2c(F)cccc2Cl)c1C(=O)Nc1nnc(-c2ccccc2)s1` gave VDR inhibitor 4%.
For CCCn1c(=S)[nH]c2ccccc2c1=O the results were VDR inhibitor 9%.
`CCOC(=O)N1CCN(C(=O)CN(C)S(=O)(=O)c2ccc(Cl)cc2)CC1` gave VDR inhibitor -14%.
`CC(C)Cn1c(S(=O)(=O)O)nc2ccccc21` gave VDR inhibitor -3%.
For O=C(/C=C/c1ccco1)NC(=S)N1CCCCC1 the results were VDR inhibitor 1%.
`O=C(Nc1cccc(Cl)c1)c1ccc(F)c(S(=O)(=O)NCc2ccc3c(c2)OCO3)c1` gave VDR inhibitor inconclusive.
CNC(=O)c1ccc(-c2ccc(Cl)c(Cl)c2)s1 was read as VDR inhibitor 18%.
For O=C(Nc1nc2ccc(S(=O)(=O)N3CCCC3)cc2s1)C1CCCCC1 the results were VDR inhibitor 3%.
`CC(=O)N1CCC[C@@]2(CCN(Cc3cc(C(F)(F)F)cc(C(F)(F)F)c3)C2)C1` gave VDR inhibitor -20%.
COc1ccc2nc3ccccc3nc2c1N was read as VDR inhibitor inconclusive.
For CCc1ccc2c(c1)C(=O)C(=O)N2CC(=O)Nc1ccc(NC(=O)c2ccccn2)cc1 the results were VDR inhibitor 4%.
COc1ccc([C@H]2CC(=O)C=C(c3ccc(SC)cc3)C2)cc1 was read as VDR inhibitor -1%.
Screening COc1ccc(-c2cc(C(=O)N3CCN(c4ccccc4F)CC3)c3ccccc3n2)c(OC)c1 returned VDR inhibitor 3%.
For O=C(c1cc(COc2ccccc2)on1)N1CCCC(CN2CCOCC2)C1 (stereo unspecified) the results were VDR inhibitor 6%.
For O=C(Nc1c[nH]c(=O)[nH]c1=O)c1cc([N+](=O)[O-])cc([N+](=O)[O-])c1 the results were VDR inhibitor -19%.
For COc1cc(OC)cc(-c2nc3nc(C)c(CCC(=O)Nc4cc(F)ccc4F)c(C)n3n2)c1 the results were VDR inhibitor -3%.
Cc1ccc[n+](CC(=O)c2ccc(Br)cc2)c1C was read as VDR inhibitor -5%.
`CC(C)=NNc1nc(-c2ccc([N+](=O)[O-])cc2)cs1` gave VDR inhibitor 12%.
O=C(CCNS(=O)(=O)c1ccc(Br)s1)Nc1ccc(Cl)cc1 was read as VDR inhibitor -3%.
Screening CCOc1ccccc1C(=O)N1CCN(C(c2ccccc2)c2ccccc2)CC1 returned VDR inhibitor 10%.
For Cc1cn(C2OC(COC(=O)c3ccccc3)C(OC(=O)c3ccccc3)C2OC(=O)c2ccccc2)c(=O)[nH]c1=O (stereo unspecified) the results were VDR inhibitor 5%.
CCCCC(NC(=O)Cc1c(C)c2cc3c4c(oc3cc2oc1=O)CCCC4)C(=O)O (stereo unspecified) was read as VDR inhibitor -14%.
Screening O=C(N/N=C/c1cc2ccccc2nc1Cl)c1ccncc1 returned VDR inhibitor -2%.
Cc1cc(=O)oc2cc(Oc3ncccc3[N+](=O)[O-])ccc12 was read as VDR inhibitor -11%.
`COc1ccccc1NS(=O)(=O)c1cccc(C(=O)N/N=C/c2c(CO)cnc(C)c2O)c1` gave VDR inhibitor 0%.
For O=C1Nc2ccccc2N(O)N1c1ccc(S(=O)(=O)N2CCCCCC2)cc1 the results were VDR inhibitor 1%.
`CC(C)(C)OC(=O)N[C@H](C(=O)OC(C)(C)C)c1ccc(C(F)(F)F)cc1` gave VDR inhibitor -3%.
`COc1cc(/C=C2/NC(=O)NC2=O)cc(Br)c1OCc1ccc(C(=O)O)cc1` gave VDR inhibitor 13%.
For NS(=O)(=O)c1ccc(NC(=O)c2cccc(N3C(=O)c4ccccc4C3=O)c2)cc1 the results were VDR inhibitor 14%.
For NC(=O)C(c1ccc(Cl)cc1)c1ncc(C(F)(F)F)cc1Cl (stereo unspecified) the results were VDR inhibitor -6%.
COc1ccc(NC(=O)C2CCN(c3nc(C)cc(C)n3)CC2)cc1 was read as VDR inhibitor -13%.
`CCCCNC(=S)Nc1cc([N+](=O)[O-])ccc1C` gave VDR inhibitor 9%.
Screening COc1ccc(C(=O)NC2CC2)cc1OC1CCN(C/C=C/c2ccccc2)CC1 returned VDR inhibitor -14%.
`CC(NS(=O)(=O)c1ccc(CCC(=O)NCC2CCCO2)cc1)c1ccccc1` (stereo unspecified) gave VDR inhibitor 5%.
Screening C=CCSc1nnc(NC(=O)c2nc(SCC)ncc2Cl)s1 returned VDR inhibitor -6%.
Screening O=C(COC(=O)/C=C/c1cccc(F)c1)Nc1ccccc1-c1ccccc1 returned VDR inhibitor -11%.
COc1ccc(-c2cc(C(=O)N3CCN(c4ccccc4OC)CC3)no2)cc1 was read as VDR inhibitor 1%.
Screening COc1cc(CN2CCN(CC#Cc3ccccc3)CC2CCO)cc(OC)c1 (stereo unspecified) returned VDR inhibitor 11%.
For Cc1ccc(C(NC(=O)NCCCN2CCOCC2)=C(Cl)Cl)cc1F the results were VDR inhibitor -14%.
`O=C(COC(=O)CSc1ccccc1)NNC(=O)c1ccc([N+](=O)[O-])cc1` gave VDR inhibitor 20%.
For Cc1nn(C(C)C(=O)NCCCc2ccccc2)c(=O)c2nn(-c3ccccc3)c(C)c12 (stereo unspecified) the results were VDR inhibitor -18%.
For Cc1ccccc1C(=O)Nc1ccccc1C(=O)NCC(C)C the results were VDR inhibitor 10%.
Screening O=C(NCCNC1CCC(c2ccccc2)CC1)c1ccc(F)cc1 (stereo unspecified) returned VDR inhibitor 0%.
COc1ccccc1C(=O)Nc1ccnn1C1CCN(CCCC2CCCC2)CC1 was read as VDR inhibitor 9%.
`COc1cc(NC(=S)N2CCC(C(O)(c3ccccc3)c3ccccc3)CC2)cc(OC)c1` gave VDR inhibitor -2%.
CCOc1ccccc1N(CC(=O)NC1CCCCC1)C(=O)CNC(=O)c1ccco1 was read as VDR inhibitor 6%.
`COc1ccc(NCc2nnc(SCc3ccccc3)n2-c2ccc(OC)cc2)cc1` gave VDR inhibitor -7%.

No new results follow: 15 of the compounds above.
Screening COc1ccc(C(=O)NC2CC2)cc1OC1CCN(C/C=C/c2ccccc2)CC1 returned VDR inhibitor -14%.
`CC(NS(=O)(=O)c1ccc(CCC(=O)NCC2CCCO2)cc1)c1ccccc1` (stereo unspecified) gave VDR inhibitor 5%.
Screening C=CCSc1nnc(NC(=O)c2nc(SCC)ncc2Cl)s1 returned VDR inhibitor -6%.
Screening O=C(COC(=O)/C=C/c1cccc(F)c1)Nc1ccccc1-c1ccccc1 returned VDR inhibitor -11%.
COc1ccc(-c2cc(C(=O)N3CCN(c4ccccc4OC)CC3)no2)cc1 was read as VDR inhibitor 1%.
Screening COc1cc(CN2CCN(CC#Cc3ccccc3)CC2CCO)cc(OC)c1 (stereo unspecified) returned VDR inhibitor 11%.
For Cc1ccc(C(NC(=O)NCCCN2CCOCC2)=C(Cl)Cl)cc1F the results were VDR inhibitor -14%.
`O=C(COC(=O)CSc1ccccc1)NNC(=O)c1ccc([N+](=O)[O-])cc1` gave VDR inhibitor 20%.
For Cc1nn(C(C)C(=O)NCCCc2ccccc2)c(=O)c2nn(-c3ccccc3)c(C)c12 (stereo unspecified) the results were VDR inhibitor -18%.
For Cc1ccccc1C(=O)Nc1ccccc1C(=O)NCC(C)C the results were VDR inhibitor 10%.
Screening O=C(NCCNC1CCC(c2ccccc2)CC1)c1ccc(F)cc1 (stereo unspecified) returned VDR inhibitor 0%.
COc1ccccc1C(=O)Nc1ccnn1C1CCN(CCCC2CCCC2)CC1 was read as VDR inhibitor 9%.
`COc1cc(NC(=S)N2CCC(C(O)(c3ccccc3)c3ccccc3)CC2)cc(OC)c1` gave VDR inhibitor -2%.
CCOc1ccccc1N(CC(=O)NC1CCCCC1)C(=O)CNC(=O)c1ccco1 was read as VDR inhibitor 6%.
`COc1ccc(NCc2nnc(SCc3ccccc3)n2-c2ccc(OC)cc2)cc1` gave VDR inhibitor -7%.

The list continues.
Screening CCN(C(=O)c1cccs1)C1CCS(=O)(=O)C1 (stereo unspecified) returned VDR inhibitor 8%.
COC(=O)c1cc2sc(Cl)cc2n1CC(=O)NCC1CCCO1 (stereo unspecified) was read as VDR inhibitor 2%.
Screening NC(Cc1ccccc1)C(=O)N1CCCCC1 (stereo unspecified) returned VDR inhibitor -6%.
For COC(=O)CCCCC1SCC2NC(=O)NC21O (stereo unspecified) the results were VDR inhibitor inconclusive.
CC(C)Nc1nc(Oc2ccc(Cl)cc2Cl)cc(C(F)(F)F)n1 was read as VDR inhibitor -3%.
For C[C@@]12C(=O)N(c3cccc(Cl)c3)C(=O)N1[C@H](c1ccc(Cl)cc1)[C@@H]1C(=O)N(C3CCCCC3)C(=O)[C@@H]12 the results were VDR inhibitor -5%.
Screening COc1ccc(N2C(=O)CC(Sc3n[nH]c(-c4ccc(C)cc4)n3)C2=O)cc1 (stereo unspecified) returned VDR inhibitor -26%.
CCC(C)(C)NC(=O)/C=C/c1cc(OC)c(OC)c(S(=O)(=O)N2CCc3ccccc32)c1 was read as VDR inhibitor 10%.
Screening CCOc1cc(-c2noc(CCC(=O)Nc3cccnc3)n2)ccc1OC returned VDR inhibitor -14%.

A portion of the library; the hit share may differ from the screen's.
